RecA splice inh: Mtb RecA intein splicing inhibitors, primary screen, biochemical, fluorescence, HTS | Protein RecA (Mycobacterium tuberculosis (strain ATCC 25618 / H37Rv)), P9WHJ3 | cell-free RecA intein splicing | inhibition, %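 (about 9 µM by stock and volumes)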 | 0.75% of 290,000 active; in the data active means inhibition above about 30%; inconclusive means no clear call, values can overlap the other calls;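 further: 0% = vehicle wells and 100% = reference inhibitor control wells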
Target sequence (P9WHJ3 whole entry, looked up, canonical isoform): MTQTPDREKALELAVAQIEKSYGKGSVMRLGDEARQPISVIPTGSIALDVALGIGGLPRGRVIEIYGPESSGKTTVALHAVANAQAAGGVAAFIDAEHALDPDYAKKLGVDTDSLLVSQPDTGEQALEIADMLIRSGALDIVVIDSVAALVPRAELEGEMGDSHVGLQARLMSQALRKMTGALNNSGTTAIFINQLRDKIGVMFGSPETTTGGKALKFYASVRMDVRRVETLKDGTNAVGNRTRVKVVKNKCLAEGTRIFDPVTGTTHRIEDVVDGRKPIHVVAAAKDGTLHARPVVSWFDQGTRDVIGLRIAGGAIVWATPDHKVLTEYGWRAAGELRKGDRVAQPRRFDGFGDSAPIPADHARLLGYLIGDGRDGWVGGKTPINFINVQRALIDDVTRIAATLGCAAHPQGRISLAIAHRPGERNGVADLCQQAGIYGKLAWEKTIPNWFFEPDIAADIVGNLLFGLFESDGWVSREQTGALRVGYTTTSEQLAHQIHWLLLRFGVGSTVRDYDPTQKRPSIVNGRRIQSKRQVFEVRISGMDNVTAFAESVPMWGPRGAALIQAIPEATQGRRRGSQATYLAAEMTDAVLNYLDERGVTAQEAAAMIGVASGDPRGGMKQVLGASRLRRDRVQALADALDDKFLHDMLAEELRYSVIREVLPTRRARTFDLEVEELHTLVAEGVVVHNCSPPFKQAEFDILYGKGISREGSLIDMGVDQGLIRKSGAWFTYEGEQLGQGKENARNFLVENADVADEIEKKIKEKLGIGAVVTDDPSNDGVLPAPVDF
Mtb H37Rv: M. tuberculosis H37Rv growth inhibitors, H37Rv strain (AID 1626); M. tuberculosis H37Rv growth inhibition; higher % means a stronger effect; one-dose inhibition, % at 10 µM; IC50 in µM for titrated hits; 0.95% of 220,000 active;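 active means confirmed in a dose series; inconclusive means inhibition above 80% but not taken into the dose series; inactive means below 80% or under 30% at every dose of the series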;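 further: bacteria incubated seven days before Alamar blue readout; 0% = bacteria only wells and 100% = bacteria with antibiotic wells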
Mtb betalactam: beta-lactam sensitization of Mtb H37Rv, H37Rv; M. tuberculosis H37Rv growth with meropenem, percent inhibition; hits of this screen are not shown here; inhibition, % at 25 µM; 0.27% of 330,000 active; AID 434955, 2010;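 active means about 74% or more and at least 40 points above the plate without the antibiotic, then above 30% in a dose series; inconclusive means first-round hits that could not be retested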;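 further: growth measured after seven days incubation then overnight dye step; 0% = bacteria only wells and 100% = bacteria with antibiotic; twin plates without the antibiotic show which effects depend on it; some results filed as inactive read as strong as hits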
Arbovirus inh: antivirals against arbovirus infection, primary screen, cell-based, full library, 10K replicate subset | inhibition, % at 10 µM | 0.37% of 200,000 active | arbovirus infection cell-based antiviral screen;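 active means inhibition from about 30%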;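 further: bluetongue infection of BSR cells; cell survival read as ATP light after 72 h; 0% = infected wells without compound and 100% = uninfected wells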
YopH PTP inh: YopH tyrosine phosphatase inhibitors, primary screen, biochemical, fluorescence Ex485/Em525; inhibition, %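 (about 10 µM by stock and volumes)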; 0.16% of 140,000 active; AID 898, 2007; YopH tyrosine phosphatase [Yersinia enterocolitica];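 active means inhibition of 50% or more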;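 further: controls were vehicle for no effect and minimum signal wells for full effect; inactives centre near -20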
Arbovirus inh repeat: second read-out of Arbovirus inh, no call of its own (marks repeat the call); inhibition, %; measured here: 10K subset replicate screen; many hits read low in the repeat;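 first of two repeat runs on a subset; 0% = infected and 100% = uninfected wells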
An asterisk follows results filed as active. An excerpt; count on the stated rates, not on these rows.

COCCCN=Cc1c(-c2ccccc2)[nH]n(-c2nc3ccccc3s2)c1=O was read as RecA splice inh 4.3, Mtb H37Rv 5% and Mtb betalactam 7.
CCC(C)c1ccc(NC(=O)CC(C)=O)cc1 (configuration not stated) was read as RecA splice inh 1.6, Mtb H37Rv 1%, Mtb betalactam -2, Arbovirus inh 0 and YopH PTP inh -24.
Screening O=C(COC(=O)C1CCCCC1)Nc1cc([N+](=O)[O-])ccc1F returned RecA splice inh -0.4, Mtb H37Rv 11%, Mtb betalactam 3 and Arbovirus inh 5.
Cc1cc(C)c(C#N)c(OCC(=O)c2ccc(Br)cc2)n1 was read as RecA splice inh -1.4, Mtb H37Rv -4%, Mtb betalactam 22, Arbovirus inh 1 and YopH PTP inh -3.
CC(=O)Nc1ccc(S(=O)(=O)NC2(C(F)(F)F)C(=O)Nc3c2c(=O)n(C)c(=O)n3C)cc1 (configuration not stated) was read as RecA splice inh -2.6, Mtb H37Rv -8%, Mtb betalactam -1, Arbovirus inh 5 and YopH PTP inh -20.
For COc1cccc(C(=O)Nc2c3c(nn2-c2ccc([N+](=O)[O-])cc2)CS(=O)(=O)C3)c1 the results were RecA splice inh 0.5 and Mtb betalactam 5.
For O=C(CSc1nnc(-c2cccs2)n1CC1CCCO1)N1CCCC1 (configuration not stated) the results were RecA splice inh -0.3, Mtb H37Rv -1%, Mtb betalactam 4 and Arbovirus inh 7.
`CCCC(C)c1nnc(NC(=O)C2CC(=O)N(CCc3ccc(F)cc3)C2)s1` (configuration not stated) gave RecA splice inh -3.6 and Mtb betalactam 1.
For O=C(CSc1n[nH]c(-c2ccco2)n1)Nc1ccccc1F the results were RecA splice inh 0.5 and Mtb betalactam -3.
Screening Cc1cnc2cc(Cl)ccc2c1SCC(=O)O returned RecA splice inh 0.9, Mtb H37Rv -22% and Mtb betalactam 4.
Screening COn1c(SCc2ccc(C)cc2C)nc2ccccc2c1=O returned RecA splice inh 10, Mtb H37Rv 1%, Mtb betalactam 10, Arbovirus inh 2 and YopH PTP inh -8.
Cc1ccccc1NS(=O)(=O)c1ccc2[nH]c(=O)[nH]c2c1 was read as RecA splice inh 1.7, Mtb H37Rv 2%, Mtb betalactam 5 and Arbovirus inh 15.
`Cc1ccc(S(=O)(=O)Cc2ccc(C(=O)OCc3ccccc3)cc2)cc1` gave RecA splice inh 2.8, Mtb H37Rv 8%, Mtb betalactam 4, Arbovirus inh 0 and YopH PTP inh 6.
OCCn1c(C(F)(F)F)nc2ccccc21 was read as RecA splice inh -0.7, Mtb H37Rv -1%, Mtb betalactam 2, Arbovirus inh -1 and YopH PTP inh -14.
Screening O=C(CCc1nc(-c2ccccc2F)no1)N1CCC2(CC1)OCCO2 returned RecA splice inh 1.4, Mtb H37Rv -5%, Mtb betalactam 8, Arbovirus inh 0 and YopH PTP inh -29.
For Cc1ccc(C(=O)NCCc2cccc(Cl)c2)cc1[N+](=O)[O-] the results were RecA splice inh 8.0, Mtb H37Rv -3%, Mtb betalactam 99, Arbovirus inh -24 and YopH PTP inh -20.
`C/C(O)=C(\C#N)P(=O)(c1ccccc1)c1ccccc1` gave RecA splice inh 6.6, Mtb H37Rv 6% and Mtb betalactam -6.
COC(=O)Nc1sc2c(c1C(N)=O)CCCCCC2 was read as RecA splice inh -5.1, Mtb H37Rv 1%, Mtb betalactam 19, Arbovirus inh 4 and YopH PTP inh 5.
`COc1ccccc1NC(=O)Cn1nc(C(F)(F)F)c2c1CCCC2` gave RecA splice inh 1.4, Mtb H37Rv 0%, Mtb betalactam 2, Arbovirus inh -5 and YopH PTP inh -2.
O=C(O)CCC(=O)Nc1ccc(-c2nc3ccc(C(=O)c4ccccc4)cc3[nH]2)cc1 was read as RecA splice inh -0.9 and Mtb betalactam -2.
`COC(=O)c1ccc2c(c1)N(Cc1nc(-c3ccc(Cl)cc3)oc1C)C(=O)C1CCCN21` (configuration not stated) gave RecA splice inh 7.5 and Mtb betalactam -1.
Screening CCOc1ccc(N2C(=O)CC(NCCNc3ccc(C(=O)c4cccs4)cc3)C2=O)cc1 (configuration not stated) returned RecA splice inh -3.3, Mtb H37Rv -1%, Mtb betalactam 5 and Arbovirus inh -1.
Cc1ccc(S(=O)(=O)n2c(N)nc3ccccc32)cc1 was read as RecA splice inh 1.9 and Mtb betalactam 5.
Cc1nn(C2CCOC(C)(C)C2)c2c1C(c1ccc3c(c1)OCO3)SCC(=O)N2 (configuration not stated) was read as RecA splice inh -1.9, Mtb H37Rv -1%, Mtb betalactam -13, Arbovirus inh 10, YopH PTP inh -9 and Arbovirus inh repeat 4.
Screening CN1CCN(C(=O)CSc2nnc(COc3ccccc3)o2)CC1 returned RecA splice inh 0.4 and Mtb betalactam -3.
Cn1c(C(=O)N2CCCc3ccccc32)cc2c(=O)n3ccccc3nc21 was read as RecA splice inh -3.5, Mtb betalactam 1, Arbovirus inh -7 and YopH PTP inh -22.
CCCn1nnc(NC(=S)NC(=O)CC)n1 was read as RecA splice inh -2.3, Mtb H37Rv 17%, Mtb betalactam inconclusive, Arbovirus inh 2 and YopH PTP inh 0.
Screening COc1ccc(Cl)cc1NC(=O)CN(C)CC(=O)Nc1ccccc1N1CCOCC1 returned RecA splice inh 5.3, Mtb H37Rv 8%, Mtb betalactam 5 and Arbovirus inh -3.
For OC1(c2ccc(Br)cc2)CN(c2ccccc2)C2=[N+]1CCS2 (configuration not stated) the results were RecA splice inh 7.6, Mtb H37Rv 4%, Mtb betalactam 11 and Arbovirus inh -1.
For CCN1C(=O)N[C@@H](c2cccc(C(F)(F)F)c2)C(C(=O)OC)=C1C the results were RecA splice inh 1.5, Mtb H37Rv -1% and Mtb betalactam -7.
O=C(NCC1COc2ccccc2O1)C1CCCN(S(=O)(=O)c2cccc3cccnc23)C1 (configuration not stated) was read as Mtb H37Rv 4%, Mtb betalactam -4, Arbovirus inh 0, YopH PTP inh -44 and Arbovirus inh repeat -2.
For CCCS(=O)(=O)c1nc(S(=O)(=O)c2ccc(C)cc2)c(N2CCN(CCO)CC2)s1 the results were RecA splice inh 1.6 and Mtb betalactam -1.
O=C1C(Cl)=C(NC2CCCCC2)C(=O)N1Cc1ccccc1 was read as RecA splice inh 4.7, Mtb H37Rv 1%, Mtb betalactam -9 and Arbovirus inh 2.
O=C(Cn1cc(C(F)(F)F)ccc1=O)N/N=C/c1ccc(Cl)cc1Cl was read as RecA splice inh 4.6, Mtb H37Rv -7%, Mtb betalactam 0, Arbovirus inh -4 and YopH PTP inh -12.
`O=S(=O)(N/N=C\C=C\c1ccccc1)c1ccc(Cl)cc1` gave RecA splice inh 0.6, Mtb H37Rv -1%, Mtb betalactam -14, Arbovirus inh -1 and YopH PTP inh -35.
CCCN1CCN(CCNC(=O)Nc2ccccc2Cl)CC1 was read as RecA splice inh 3.0 and Mtb betalactam 4.
CC(C)(C)C(=O)Nc1ccc(S(=O)(=O)N2CC3CC(C2)c2cccc(=O)n2C3)cc1 (configuration not stated) was read as RecA splice inh 0.6 and Mtb betalactam -13.
Cc1cc(C)c(NC(=O)CS(=O)CC(=O)NCCN2CCCCCC2)c(C)c1 (configuration not stated) was read as RecA splice inh -3.4 and Mtb betalactam -10.
For COC(=O)C1=C(C)N(c2cc(C)cc(C)c2)/C(=C/c2ccco2)C1=O the results were RecA splice inh 1.5, Mtb H37Rv 3%, Mtb betalactam 0 and Arbovirus inh -9.
Screening C[C@@H](N)Cc1cnc[nH]1 returned RecA splice inh 0.8, Mtb H37Rv -5% and Mtb betalactam -2.

Retrieved by structure from the entries so far (6):
For CCCS(=O)(=O)c1nc(S(=O)(=O)c2ccc(C)cc2)c(N2CCN(CCO)CC2)s1 the results were RecA splice inh 1.6 and Mtb betalactam -1.
CCC(C)c1ccc(NC(=O)CC(C)=O)cc1 (configuration not stated) was read as RecA splice inh 1.6, Mtb H37Rv 1%, Mtb betalactam -2, Arbovirus inh 0 and YopH PTP inh -24.
O=C1C(Cl)=C(NC2CCCCC2)C(=O)N1Cc1ccccc1 was read as RecA splice inh 4.7, Mtb H37Rv 1%, Mtb betalactam -9 and Arbovirus inh 2.
OCCn1c(C(F)(F)F)nc2ccccc21 was read as RecA splice inh -0.7, Mtb H37Rv -1%, Mtb betalactam 2, Arbovirus inh -1 and YopH PTP inh -14.
CC(=O)Nc1ccc(S(=O)(=O)NC2(C(F)(F)F)C(=O)Nc3c2c(=O)n(C)c(=O)n3C)cc1 (configuration not stated) was read as RecA splice inh -2.6, Mtb H37Rv -8%, Mtb betalactam -1, Arbovirus inh 5 and YopH PTP inh -20.
`COC(=O)c1ccc2c(c1)N(Cc1nc(-c3ccc(Cl)cc3)oc1C)C(=O)C1CCCN21` (configuration not stated) gave RecA splice inh 7.5 and Mtb betalactam -1.

Carrying on:
`CCCc1ccc(NC(=O)C2CCN(c3cnccn3)CC2)cc1` gave RecA splice inh 2.4 and Mtb betalactam 84.
Cc1ccccc1CSc1nc2c(c(=O)[nH]1)CCCC2 was read as RecA splice inh 10, Mtb betalactam 8, Arbovirus inh 6 and YopH PTP inh -15.
COC(Cn1c2c(c3cc(C)ccc31)CCCC2NCc1ccccc1)OC (configuration not stated) was read as RecA splice inh 4.8 and Mtb H37Rv 1%.
CCCOc1ccc(C(=O)CCNc2ccc(C)c(Cl)c2)cc1 was read as RecA splice inh 0.5, Mtb H37Rv 69%, Mtb betalactam -7, Arbovirus inh 1 and YopH PTP inh -2.
CC(=O)Nc1ccc(-n2nnnc2SCC(=O)NC2CCCC2)cc1 was read as RecA splice inh 0.0 and Mtb betalactam -1.
CC1C(=O)NN=C1C(=O)N/N=C/c1cccs1 (configuration not stated) was read as RecA splice inh -1.4, Mtb H37Rv 1%, Mtb betalactam 2 and Arbovirus inh 7.
Screening CCOC(=O)C1=C(C)OC(N)=C(C#N)C1c1ccsc1 (configuration not stated) returned RecA splice inh -2.8, Mtb H37Rv -6%, Mtb betalactam 1, Arbovirus inh -2 and YopH PTP inh -34.
`CCC(C)(C(=O)NC1CCCCC1)N(C(=O)c1ccccn1)c1ccccc1` (configuration not stated) gave RecA splice inh 5.2, Mtb H37Rv -3%, Mtb betalactam 2, Arbovirus inh 12 and YopH PTP inh 13.
O=C(N/N=C/c1coc2ccccc2c1=O)c1cccc([N+](=O)[O-])c1 was read as RecA splice inh 2.6, Mtb H37Rv -6%, Mtb betalactam -1 and Arbovirus inh 4.
Screening COc1ccc(NS(=O)(=O)c2cccc(C(=O)N3CCCCCC3)c2)cc1 returned RecA splice inh 0.9 and Mtb betalactam -1.
Cc1ccc2c(c1)c1c(c(=O)n(-c3ccccc3)c(=O)n1CC(=O)NCC1CCCO1)n2C (configuration not stated) was read as RecA splice inh -0.7 and Mtb betalactam 7.
For Cc1cccc(-c2nnc(NC(=O)c3ccc(N4C(=O)CCC4=O)cc3)s2)c1 the results were RecA splice inh -12, Mtb H37Rv 6%, Mtb betalactam -5, Arbovirus inh 0 and YopH PTP inh -24.
Screening S=c1[nH]nc(-c2ccccc2)o1 returned RecA splice inh 1.0, Mtb H37Rv -12%, Mtb betalactam 19, Arbovirus inh 14 and YopH PTP inh -13.
`Cc1c(C(=O)N(C)CCC#N)oc2ccc(S(=O)(=O)N3CC(C)CC(C)C3)cc12` (configuration not stated) gave RecA splice inh 0.7 and Mtb betalactam 5.
Screening CCC(C)(C)n1nnnc1C(c1ccc(C)cc1)N1CCN(Cc2cccnc2)CC1 (configuration not stated) returned RecA splice inh 2.0, Mtb H37Rv 10%, Mtb betalactam 2, Arbovirus inh 6 and YopH PTP inh -32.
For O=C(C1CCC(=O)N(C2CC2)C1)N(CCO)Cc1ccccc1 (configuration not stated) the results were RecA splice inh 0.7 and Mtb betalactam -3.
O=C(O)CCc1nc2ccccc2n(CCc2ccccc2)c1=O was read as RecA splice inh 3.8, Mtb H37Rv -9%, Mtb betalactam -1, Arbovirus inh 14 and YopH PTP inh -1.
Screening CC(=O)Nc1ccc(S(=O)(=O)Nc2nnc(C(C)C)s2)cc1 returned RecA splice inh -2.2, Mtb H37Rv -6%, Mtb betalactam -8, Arbovirus inh -1 and YopH PTP inh -38.
CCCc1c(C)nn(C(=O)/C(C#N)=N/Nc2ccccc2[N+](=O)[O-])c1C was read as RecA splice inh 5.6, Mtb H37Rv 5%, Mtb betalactam 2 and Arbovirus inh 3.
Screening CC1=C(C(=O)Nc2ccccc2)C(c2ccco2)NC(=S)N1 (configuration not stated) returned RecA splice inh -1.4, Mtb H37Rv -1%, Mtb betalactam 3, Arbovirus inh 3 and YopH PTP inh -28.
Screening CCC(=O)NNc1ccc(Br)cc1 returned RecA splice inh -1.4, Mtb H37Rv inconclusive, Mtb betalactam 98 and Arbovirus inh -25.

Assay outcomes (PubChem BioAssay)
